# High-throughput results from PubChem BioAssay.
# VDR inhibitor: vitamin D3 receptor (human) inhibition | P11473 | VDR-SRC2-3 peptide fluorescence polarization, 2 h | Potency, µM, for the others: max response, negative = inhibition, most hits filed as inhibitors | 400,000 tested, 0.93% active | AID 504847; active = well fitted inhibition curve with a large enough effect; inconclusive = small, poorly fitted or top-dose-only effect, or another doubt; inactive = no such curve, though single readings can be large or run the other way; also: series mostly up to about 120 µM
# Target sequence (P11473 whole entry, looked up): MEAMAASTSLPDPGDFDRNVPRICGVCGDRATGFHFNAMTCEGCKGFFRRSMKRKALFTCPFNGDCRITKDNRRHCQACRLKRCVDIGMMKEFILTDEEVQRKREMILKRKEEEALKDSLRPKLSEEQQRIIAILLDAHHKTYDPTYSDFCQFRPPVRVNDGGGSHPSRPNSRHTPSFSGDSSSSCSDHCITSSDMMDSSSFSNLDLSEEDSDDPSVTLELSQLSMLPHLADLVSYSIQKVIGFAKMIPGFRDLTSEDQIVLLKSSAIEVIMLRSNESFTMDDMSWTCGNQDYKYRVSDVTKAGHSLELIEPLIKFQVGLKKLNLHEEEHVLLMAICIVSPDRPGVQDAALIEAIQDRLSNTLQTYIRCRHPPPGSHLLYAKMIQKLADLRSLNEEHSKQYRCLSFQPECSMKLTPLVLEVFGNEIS
#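 Fluorescence polarization assay measuring small-molecule disruption of VDR binding to the coregulator peptide SRC2-3. Compounds were pin-transferred (23 nl) into the reagent mix and incubated 2 h at room temperature before reading.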
# * hit, by the source's call; ? = inconclusive; & = joins results of further samples. % is scaled to controls: 0 for no effect and ±100 for the full control effect; potency is read from the fitted curve at half-maximal effect. This is a subset, so the mix of outcomes need not match the whole.
SMILES,VDR inhibitor
COc1ccc(NS(=O)(=O)c2ccc(C)cc2)c([N+](=O)[O-])c1,?
CCC(=O)Nc1ccccc1C(=O)OCC(=O)c1cccc2ccccc12,-8%
C=CCn1c(=N)n(CC(=O)c2ccc(Br)cc2)c2ccccc21,-17%
Cc1ccsc1/C=C/C(=O)O,2%
Cc1onc(-c2ccccc2)c1C(=O)NNC(=S)NC(=O)c1ccc(Br)cc1,-18%
CCCC(=O)Nc1c(-c2cccc(C)c2)c(=O)c2ccccc2n1C,13%
CC1(C)C2CCC1(CS(=O)(=O)N1CCCC1C(=O)O)C(=O)C2 (centres undefined),-4%
COc1ccccc1N=c1sc2ccccc2n1C,3%
N#Cc1ccc(-c2cn3c(n2)SCC3)cc1,-9%
CC(=O)NCCNC(=O)c1ccc(Sc2ccccc2)c([N+](=O)[O-])c1,-4%

# A different layout for three compounds above.
smiles	VDR inhibitor
COc1ccccc1N=c1sc2ccccc2n1C	3%
N#Cc1ccc(-c2cn3c(n2)SCC3)cc1	-9%
CC(=O)NCCNC(=O)c1ccc(Sc2ccccc2)c([N+](=O)[O-])c1	-4%

# Next part.
SMILES,VDR inhibitor
CCOC(=O)c1[nH]c(C)c(C(=O)Nc2ccc(F)cc2)c1C,-5%
COc1cccc(NC(=O)NC2CCN(Cc3nnnn3Cc3ccc4c(c3)OCO4)CC2)c1,0%
COc1ccc(CC(=O)Nc2nc3ccccc3s2)cc1S(=O)(=O)N1CCOCC1,?
CCc1ccc(C(=O)c2cn(CC(=O)Nc3ccc(F)cc3)c3cc4c(cc3c2=O)OCO4)cc1,-4%
Cc1ccc(-n2c(=O)c3cccnc3n2CC(=O)NCc2ccc(F)cc2)cc1C,-7%
O=C(CN1CCN(Cc2ccccc2Cl)C1=O)NCc1cccnc1,-17%
O=C(CCCCCn1c(=O)[nH]c2ccsc2c1=O)NCc1ccc(F)cc1,9%
O=C(c1[nH]ncc1[N+](=O)[O-])N1CCOCC1,23%
Nc1cc(S(=O)(=O)Nc2cc(Cl)ccc2Cl)ccc1N1CCOCC1,35µM*
COc1cccc(/C=N/Nc2cc(C)nc(-c3ccccc3O)n2)c1O,-1%
CCNC(=O)c1ccccc1SCC(=O)Nc1ccc(F)cc1,?
OCC1(Cc2ccc(F)cc2)CCCN(CCc2ccccc2)C1 (centres undefined),6%
COc1ccc(C(=O)/C=C(\C)NCc2ccc3c(c2)OCO3)cc1,22%
COc1ccccc1N1CCN(C(=O)CCCCn2c(=O)[nH]c3ccsc3c2=O)CC1,2%
COc1ccc(C)cc1S(=O)(=O)N1CCN(C)CC1c1ccccc1 (centres undefined),1%
CCc1cccc(NS(=O)(=O)c2csc(C(N)=O)c2)c1,-8%
COCCn1c(=O)c(-c2ccc(OC)cc2)nc2cnc(Nc3ccccc3)nc21,17%
CCC(=O)N1CCCN(S(=O)(=O)c2ccc(C)cc2)C1c1ccc(OC)cc1 (centres undefined),-16%
CC(C(=O)OCC(=O)NC1CCCCC1)N1C(=O)c2ccccc2C1=O (centres undefined),-12%
CCOC(=O)C1CCN(c2c(C(=O)c3ccc(OCC)cc3)cnc3ccc(OC)cc23)CC1,2%
CCOC(=O)C1CCN(c2ncnc3c2cnn3-c2ccc(Cl)cc2)CC1,4%
CCn1ncc(Br)c1C(=O)Nc1c(C)nn(Cc2c(F)c(F)c(F)c(F)c2F)c1C,-3%
O=C(Nc1cccc(O)c1)c1ccc(Br)cc1,11%
Cc1ccc(NC(=O)CSc2nnc(N)s2)cc1S(=O)(=O)N1CCCCC1,13%
CC(C)CC(O)C1CCN(C(=O)CCc2nnc(-c3ccc4c(c3)OCO4)o2)CC1 (centres undefined),-14%
COc1cc(OC)cc(-c2nnc(SCC(=O)N3CCCCC3)o2)c1,-10%
N#Cc1c(C(F)(F)F)cc(-c2cccs2)nc1SCc1ccc(Cl)nc1,-2%
COc1nc(C)ccc1-c1noc(-c2ccccn2)n1,-3%
CC1Cc2ccccc2N1c1ncnc2nc[nH]c12 (centres undefined),-7%
O=C(Oc1ccccc1)N1CCC2(CCCN(c3cccc(-c4ccccc4)c3)C2)CC1,?
Cc1cc(=O)n2nc(N3CCC(C(=O)NCc4ccccc4Cl)CC3)sc2n1,26%&2%
CC(C)NS(=O)(=O)c1ccc(CCC(=O)NCc2cccnc2)cc1,-3%
CC1CCC2(CC1)NC(=O)N(Cc1cc(=O)n3ccsc3n1)C2=O (centres undefined),-5%
COc1cccc(NC(=O)Cn2c(=O)n(CCC(=O)NC3CCN(Cc4ccccc4)CC3)c(=O)c3ccccc32)c1,-17%
Cc1cccc(-n2c(SCC(=O)Nc3ccccc3C)nc3c(oc4ccccc43)c2=O)c1,-1%
C#Cc1ccc([C@@H]2C=C(C(=O)OCC=C)O[C@H](OCc3ccc(CO)cc3)C2)cc1,?
CC1CC(C)(C)NC(=S)N1CCCC(=O)Nc1ccccc1F (centres undefined),-7%
CCn1c(-c2ccccc2Cl)nn(CC(=O)Nc2cc(Cl)ccc2Cl)c1=S,-16%
Cc1c(O)ccc2cc(S(=O)(=O)c3ccccc3)c(=O)oc12,-3%
CCOc1[nH]n(-c2ccccc2)c(=O)c1C=Nc1ccc(C(=O)OC)cc1,-17%
NCCC[C@@H](CC(=O)N[C@@H]1CCNC[C@H]1C(=O)N[C@H](CC(=O)N[C@@H](CCC(=O)O)CC(=O)O)Cc1ccccc1)NC(=O)C[C@H](Cc1ccccc1)NC(=O)[C@@H]1CNCC[C@H]1N,-13%
CCOC(=O)c1c(NC(=O)CN2C(=O)NC3(CCCCCC3)C2=O)sc(C)c1-c1ccc(C)cc1,-16%
O=C(CN1CCN(c2ccccc2O)CC1)NC(=O)NCc1ccco1,14%
COc1ccc(N2CCN(S(=O)(=O)c3c(C)noc3/C=C/N(C)C)CC2)cc1,2%
C(=N\Nc1ncnc2nc[nH]c12)/c1cccs1,4%
CCOC(=O)c1csc(NC(=O)c2cc(-c3ccccn3)nc3ccccc23)n1,-8%
Cc1ccc(NC(=O)c2ccc(Cn3cc([N+](=O)[O-])cn3)cc2)c(C)c1,-5%
CC(=O)N1N=C(c2ccncc2)OC1(Cc1ccccc1)Cc1ccccc1,-3%
Cc1cc(C(=O)CSc2nn3c(=O)c(C(C)(C)C)nnc3s2)c(C)n1-c1ccc(F)cc1,23%
CC(=O)N1CCc2cc(Br)cc(S(=O)(=O)N3CCC(C(=O)N(C)c4cc(C)ccc4C)CC3)c21,-4%
# (next part)
SMILES,VDR inhibitor
CC1(CO)COC(c2ccccc2)=N1 (centres undefined),16%
CC1CN(C(=O)CSc2nnc3c(Cl)cc(Cl)cn23)CC(C)O1 (centres undefined),-4%
CCN(C(=O)c1cc2c(=O)n3ccccc3nc2s1)C1CCCCC1,-24%
CCCc1cc(=O)[nH]c(SCC(=O)Nc2ccc3ccccc3c2)n1,12%
CN(CC(=O)Nc1ccc(Cl)c(C(F)(F)F)c1)C(=O)CNC(=O)C1CCCCC1,-3%
CCOC(=O)c1cc(NC(=O)c2ccc(C)cc2)c(=O)oc1-c1ccccc1,1%
COc1ccc(S(=O)(=O)Nc2ccccc2C(=O)N2CCCCC2)cc1C,2%
CCOCCCNC(=O)c1ccccc1NC(=O)C1=C(C)OCCS1,?
COC(=O)c1ccc(NC(=O)N2CCc3c([nH]c4ccccc34)C2c2ccc(C)cc2)cc1 (centres undefined),9%
O=C(N/N=C\c1ccc(Cl)cc1)C1=NOC2COC3(CCN(c4ccc([N+](=O)[O-])cc4)CC3)OCC12 (centres undefined),-8%
O=C1CCN(S(=O)(=O)c2ccccc2)CCN1CCOCc1ccccc1,-14%
O=C(NNS(=O)(=O)c1ccc(F)cc1)C1CCN(S(=O)(=O)c2ccccc2)CC1,-2%
Cc1ccc2cc(CN(C(=O)c3cccc(Cl)c3)c3ccccc3)c(=O)[nH]c2c1,4%
CCOCCCNC(=O)C(NC(=O)c1ccc(=O)[nH]c1)c1ccc(C)cc1 (centres undefined),-16%
Clc1ccc([C@H](Cn2ccnc2)OCc2c(Cl)cccc2Cl)c(Cl)c1,?
O=C1N(c2ccccc2)C[C@@H]2C[C@@H](c3cc4ccccc4o3)N3CCC[C@@]123,9%
O=c1oc2ccccc2nc1/C=C(\O)c1ccc(Br)cc1,-9%
COc1ccc(Nc2nc(N3CCOCC3)nc(N3CCOCC3)n2)c(OC)c1,8%
CCCCCCSc1ccc(-c2nc3cc(C)ccn3c2NC2CCCCC2)cc1,-11%
O=[N+]([O-])c1cc(S(=O)(=O)N2CCCC2)ccc1OCc1ccccc1,1%
CCCc1cc(=O)n2c(C(=O)Nc3ccc(OCC)cc3)c(C(=O)Nc3ccc(C)cc3)sc2n1,8%
COc1ccc(C2C(C#N)=C(N)N(c3ccccc3)C3=C2C(=O)CCC3)cc1Cn1cc([N+](=O)[O-])cn1 (centres undefined),17%
Cc1nn(CC(=O)N2CCC(C)CC2)c(=O)c2cccn12,-17%
COc1ccc(C2N(c3ccccc3)CCN2c2ccccc2)cc1O,15%
Cc1ccc(SCC(=O)OCC(=O)NCCc2ccccc2)cc1C,-8%
NC(=O)c1sc2nc(N3CCOCC3)c3c(c2c1N)CCCC3,-14%
O=c1[nH]c2cccnc2n1Cc1ccco1,13%
O=C(COC(=O)c1ccccc1-c1nc2ccccc2s1)Nc1ccccc1C(F)(F)F,10%
CCCCN1C(=O)c2ccc(C(=O)NC3(C)CCS(=O)(=O)C3)cc2C1=O (centres undefined),1%
CCc1ccc(/C=N/NC(=O)c2cc(C3CC3)nc3ccc(Br)cc23)s1,5%
OCC[C@@H]1C[C@@H](O)[C@H](O)[C@]2(Cc3ccccc3CO2)O1,-19%
COC(=O)NCC(c1cccnc1)N1CCOCC1 (centres undefined),-1%
COC1=C(OC)C(=O)C(Sc2ccc3ccccc3c2)=CC1=O,8.9µM*
COc1ccc(CNc2nc3c(c(=O)n(Cc4ccc(Cl)cc4)c(=O)n3C)n2C)cc1,-10%
Cc1cccc(CN2CCN(CC(C)C)C(CCO)C2)n1 (centres undefined),-18%
CC1=C(CC(=O)c2ccccc2)C(=O)c2ccccc2C1=O,-4%
CCCC[n+]1ccn(C2=C([O-])c3ccccc3C(=O)/C2=N\S(=O)(=O)c2ccc(Br)cc2)c1,9%
CCOc1ccccc1C(C(=O)NC1CCCC1)N(Cc1ccco1)C(=O)CNC(=O)c1ccco1 (centres undefined),0%
NC(=S)n1[nH]c(-c2ccccc2)c(N=Nc2ccccc2C(=O)N2CCOCC2)c1=O,4%
O=C(Nc1cccc(Cl)c1)Nc1ccccc1OCc1cc(=O)n2ccccc2n1,6%

# Grouped by structure: those above containing an aryl thioether with sulfur outside any ring (12)
SMILES,VDR inhibitor
CC(=O)NCCNC(=O)c1ccc(Sc2ccccc2)c([N+](=O)[O-])c1,-4%
CCNC(=O)c1ccccc1SCC(=O)Nc1ccc(F)cc1,?
Cc1ccc(NC(=O)CSc2nnc(N)s2)cc1S(=O)(=O)N1CCCCC1,13%
COc1cc(OC)cc(-c2nnc(SCC(=O)N3CCCCC3)o2)c1,-10%
N#Cc1c(C(F)(F)F)cc(-c2cccs2)nc1SCc1ccc(Cl)nc1,-2%
Cc1cccc(-n2c(SCC(=O)Nc3ccccc3C)nc3c(oc4ccccc43)c2=O)c1,-1%
Cc1cc(C(=O)CSc2nn3c(=O)c(C(C)(C)C)nnc3s2)c(C)n1-c1ccc(F)cc1,23%
CC1CN(C(=O)CSc2nnc3c(Cl)cc(Cl)cn23)CC(C)O1 (centres undefined),-4%
CCCc1cc(=O)[nH]c(SCC(=O)Nc2ccc3ccccc3c2)n1,12%
CCCCCCSc1ccc(-c2nc3cc(C)ccn3c2NC2CCCCC2)cc1,-11%
Cc1ccc(SCC(=O)OCC(=O)NCCc2ccccc2)cc1C,-8%
COC1=C(OC)C(=O)C(Sc2ccc3ccccc3c2)=CC1=O,8.9µM*

# (continued)
SMILES,VDR inhibitor
CCCN1CCN(CCCNC(=O)c2cc3c(s2)-c2ccccc2OC3)CC1,4%&9%
COc1ccc(C(=O)N/N=c2\oc3ccccc3cc2C(N)=O)cc1,-11%
CN(C)/C(=N\S(=O)(=O)c1ccc(Br)cc1)c1ccccc1,14%
O=C(COC(=O)c1cccc(S(=O)(=O)N2CCCCCC2)c1)NCc1ccc(Cl)cc1,-6%
COc1ccc(/C=C/c2cc(-c3ccc(C)cc3)o[n+]2C)cc1,-18%
Cc1csc(NC(=O)C2CC(=O)N(c3ccc4c(c3)OCCO4)C2)n1 (centres undefined),1%
COc1ccccc1C(=O)NC1CCN(C(=O)Nc2ccc(C)cc2)CC1,8%
CCCCCCCC/C=C\C/C=C\C/C=C\CCCC(=O)O,-2%&3%
COc1cc(S(=O)(=O)n2ccnc2C(C)C)ccc1Br,18%
COc1ccc(/C=C2\SC(=S)N(CC(=O)NC3CCS(=O)(=O)C3)C2=O)cc1 (centres undefined),-11%
O=C1CC(c2ccccc2)CC2=C1C=Nc1ccccc1N2 (centres undefined),-10%
CCOC(=O)/C=C1\NC(=O)CS1,-4%
N#CCCN(C(=O)COC(=O)c1cc(S(=O)(=O)N2CCOCC2)ccc1Cl)c1ccc(F)cc1,-9%
NS(=O)(=O)c1ccc(CCNC(=O)c2ccc(-c3ccccc3)cc2)cc1,-21%
CC1CCCCC1NC(=O)c1cc2c(=O)n3ccccc3nc2n1C (centres undefined),9%
O=C1CNC(=O)/C1=C/c1ccc(Br)cc1,5%
COC(=O)c1ccc(NC(=O)CC2C(=O)N(c3cccc(C)c3)C(=O)N2C2CCCC2)cc1 (centres undefined),3%
C=CCn1c(Cc2ccc(OC)cc2)nnc1SCC(N)=O,2%
CSC1=N/C(=C/c2ccc(-n3cncn3)cc2)C(=O)N1,17%
CCc1noc(C)c1C(=O)NNC(=O)COc1ccc(C)cc1,-15%
